Source: PubChem BioAssay
D2 agonist = activates the human D2 dopamine receptor | P14416 | DiscoveRx PathHunter D2 beta-arrestin, luminescence, 90 min; 100% = 57 uM dopamine signal | activation, % (concentration not given with the values) | 0.084% of 360,000 active; in the data active = activation above about 40%; inconclusive = about 15% to 40%; inactive = below about 15%; further: compound concentration not given in the record; the text of the record calls up to 30% inactive
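DiscoveRx PathHunter D2 beta-arrestin cells (2,100/well) attached overnight, then compound-stimulated 90 min at 37 C in HBSS/10 mM HEPES/0.1% Tween-20 buffer; beta-galactosidase complementation read by luminescence after 1 h at ambient temperature. Dopamine 57 uM final (EC100) as control.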
CtBP-E1A inh = inhibitors of CtBP/E1A interaction; AlphaScreen GST-E1A/His-CtBP binding, 1536-well; hits give low values; control for the full effect not named in the record; activity change, % (no concentration beside the values); 0.49% of 340,000 active; in the data active means activity change below about -65%; inconclusive means about -30% to -65%; inactive means above about -30%; further: on the % scale 0 is the no-effect control and ±100 the full control effect; compound concentration not given in the record
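In 5 uL wells, 23 nL compound meets equimolar GST-E1A and His-CtBP (5X stock 125 nM each) for 2 h, 37 °C. Beads (5X, 50 ug/mL) then 1 h, 37 °C, dark.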
Six1-Eya2 blk = blocks human Six1 binding to Eya2 | AlphaScreen GST-Six1/His-Eya2 binding, biochemical; hits give low values; control for the full effect not named in the record | activity change, % (concentration not given with the values) | 0.56% of 360,000 active | AID 651725; in the data active = activity change below about -65%; inconclusive = about -30% to -65%; inactive = above about -30%; further: on the % scale 0 is the no-effect control and ±100 the full control effect
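Six1/Eya2 binding was read as AlphaScreen signal after compounds were pinned into GST-Six1 plus His-tagged Eya2 (5X stock 250/500 nM) in pH 8.0 Tris/NaCl/TCEP buffer, beads added, then incubated 1 h, 37 C, dark.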
TRPML1 ag = human mucolipin-1 channel agonism; Q9GZU1; TRPML1-expressing cells, Ca2+ dye fluorescence, FDSS; host cell line not named in the record; reference of the full effect not given here; activation, % (test concentration not listed); 0.12% of 410,000 active; AID 624414; in the data active = activation above about 50%; inconclusive = about 30% to 50%; inactive = below about 30%; further: 0% is about no effect; the text of the record puts the active cut at 80%
Target sequence (Q9GZU1 whole entry, looked up): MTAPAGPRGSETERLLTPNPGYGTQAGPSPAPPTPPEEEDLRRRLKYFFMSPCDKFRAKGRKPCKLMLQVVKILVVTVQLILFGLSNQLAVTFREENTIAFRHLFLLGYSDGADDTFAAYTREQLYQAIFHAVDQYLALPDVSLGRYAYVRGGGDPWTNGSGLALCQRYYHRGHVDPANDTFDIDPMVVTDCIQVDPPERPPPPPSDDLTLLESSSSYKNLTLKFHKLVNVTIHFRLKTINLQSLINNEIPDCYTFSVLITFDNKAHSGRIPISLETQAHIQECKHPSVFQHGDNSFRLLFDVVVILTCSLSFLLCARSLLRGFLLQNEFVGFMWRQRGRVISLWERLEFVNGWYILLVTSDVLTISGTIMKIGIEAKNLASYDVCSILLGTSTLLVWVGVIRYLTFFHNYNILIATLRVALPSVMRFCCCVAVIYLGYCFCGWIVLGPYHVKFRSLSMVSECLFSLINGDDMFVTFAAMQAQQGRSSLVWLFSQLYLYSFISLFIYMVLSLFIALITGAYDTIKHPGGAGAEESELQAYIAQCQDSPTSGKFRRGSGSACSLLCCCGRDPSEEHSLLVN
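Tet-induced TRPML1-DL cells, 1,500 per well, cultured overnight, were loaded with a no-wash Ca2+ dye for 45–90 min. Calcium fluorescence was recorded on the FDSS for 110 s after compound addition, before the EC80 agonist (4 uM 54-4) was added.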
TRPML1 inh = human mucolipin-1 channel inhibition | Q9GZU1 | TRPML1-inducible cells, Ca2+ dye fluorescence, FDSS; hits give low values; inhibition of EC80 agonist-evoked calcium signal | activity change, negative = inhibition, % (test concentration not listed) | 0.02% of 390,000 active | AID 624415; in the data active means activity change below about -50%; inconclusive means about -30% to -50%; inactive means above about -30%;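 further: stimulus is agonist 54-4 at its EC80 concentration; on the % scale 0 is the no-effect control and ±100 the full control effect; compound concentration not given in the record; the text of the record puts the active cut at -80%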
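TRPML1-DL cells, Tet-induced overnight (~16 h, 37 °C) at 1,500 cells/well, were loaded with Ca8 no-wash dye plus quencher for 45-90 min at room temperature. Compounds were pinned during FDSS kinetic reading; agonist 54-4 at EC80 (4 uM final) then added.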
PINK1 modulator = changes PINK1 expression | AID 624263 | 0.2% of 410,000 active | Potency, µM (highest dose often 76.6 µM), for inactives: top-dose activation (PINK1 increase), most hits filed as activators | PINK1 immunofluorescence, high-content cytometry, 24 h; active = well fitted activation curve with a large enough effect; inconclusive = small, poorly fitted or top-dose-only effect; inactive = flat fitted curve, though single readings scatter; cell line not stated here;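 further: potency means the concentration at half of the fitted maximal effect; % of control where 0% means no effect; nearly all actives have a fitted effect of over 65% in size; a mitochondrial uncoupler was the plate control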
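Stable cell line, 250 cells/well, 12 h attachment; compounds pinned at 5 concentrations, 24 h; CCCP control. Fixed with nuclear dye, primary antibodies 12 h at 10 degrees C, secondary plus cell stain; laser-scanning cytometer read.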
An asterisk follows results filed as active; ? = inconclusive; . = not tested or not shown; & = joins results of further samples; [ ] = dose if it differs, or a comment.

SMILES	D2 agonist	CtBP-E1A inh	Six1-Eya2 blk	TRPML1 ag	TRPML1 inh	PINK1 modulator
CC1CCCCC1NCC(=O)Nc1ccccc1-c1ccccc1 (centres undefined)	-4.1	3	0	0.5	12	-0.4%
CCOC(=O)c1c(NC(=O)CCN2C(=O)c3ccccc3C2=O)sc(C(=O)OC(C)C)c1C	-2.7	8	-2	0.5	4	12%[38.3 µM]
CCOC(=O)C1CCN(CC(O)COc2ccc(C(C)(C)C)cc2)CC1 (centres undefined)	?	1	-8	-0.8	31	-2.5%
COc1cc2c(cc1OC)C(NC(=O)C(F)(F)F)CNC2=O (centres undefined)	-3.1	-13	0	1.3	-6	-2.0%
CC1CCCCN1C(=O)CSc1nnc2c(n1)[nH]c1ccccc12 (centres undefined)	-3.9	?	?	-1.5	1	6.6%
O=C(O)Cc1c(-c2ccccc2)c2cc(Br)ccc2[nH]c1=O	-3.9	2	-1	0.0	8	4.2%
Nc1c(C(=O)Nc2ccc(Br)cc2)sc2nc(-c3ccncc3)ccc12	.	.	.	18	19	4.0%
CN(CC(=O)Nc1ccccc1Cl)C(=O)COC(=O)c1ccc([N+](=O)[O-])s1	14	?	-4	2.6	12	2.4%
COc1ccc(C(=O)NCc2ccco2)cc1S(=O)(=O)NC1CC1	0.7	0	3	-0.6	-7	-1.3%
S=C1NCN(C2CCCCC2)CN1CCc1ccccc1	1.6	0	-7	1.5	-7	-1.2%
CC(C)Cc1nnc(NC(=O)CCc2ccccc2)s1	-0.3	.	10	-0.3	6	-1.1%
O=c1cc(-c2ccc(Cl)cc2)oc(=O)[nH]1	-4.8	.	-1	0.1	8	2.3%
Cc1cccc(C(=O)OCC(=O)NN2C(=O)NC3(CCCCC3)C2=O)c1	-2.7	5	0	-0.7	-2	1.6%
COc1cc(C2C(C(=O)c3sc(C)nc3C)=C(O)C(=O)N2CCN(C)C)cc(OC)c1OC (centres undefined)	-3.6	13	2	-0.6	-16	0.3%
CCOc1cc(C(=O)Nc2cccc(OCC(=O)N3CCOCC3)c2)cc(OCC)c1OCC	14	-26	0	0.1	-17	17%
Cc1ccc(C)c(S(=O)(=O)NCCc2csc(-c3ccc(Cl)cc3)n2)c1	.	.	.	3.0	15	14%
Cc1ccc(C(=O)N/C(=C/c2ccco2)C(=O)Nc2cccc(C)c2)cc1	-2.7	-12	-11	-0.4	-5	-1.5%[38.3 µM]
CCOc1ccc(CCNC(=O)COC(=O)CCC(=O)c2cccs2)cc1OCC	-3.9	-5	19	-0.3	-8	-0.8%
Cc1cnc(C(=O)Nc2nccs2)cn1	0.8	?	-29	-0.4	2	-0.8%
CCOC(=O)C1CCN(C(=O)c2[nH]c3ccc(OC)cc3c2C)CC1	0.6	2	-6	2.7	79	5.0%
O=C(NC(=O)c1ccc(F)cc1)Nc1ccc(-c2cc(C(F)(F)F)nn2-c2ccccc2)cc1	.	.	.	1.3	0	1.7%
CC(C)C(NC(=O)c1ccc(C(C)(C)C)cc1)C(=O)O (centres undefined)	-2.0	5	3	-0.5	0	.
Cc1cc(-c2ccc(C)c(S(=O)(=O)N3CCN(c4cccc(C(F)(F)F)c4)CC3)c2)on1	.	.	.	0.4	-3	0.6%
Cc1cnc(C(=O)OCC(=O)Nc2ccc(C)c(S(=O)(=O)N3CCCCCC3)c2)cn1	-0.2	-2	14	3.0	16	-0.3%
O=C(NCc1ccc2c(c1)OCO2)c1cc(COc2c(F)cccc2F)on1	-0.1	9	13	1.7	-8	?
CN(C(=O)COc1ccc(S(=O)(=O)N2CCOCC2)cc1[N+](=O)[O-])C1CCS(=O)(=O)C1 (centres undefined)	-1.0	0	-4	0.9	0	2.6%
N#Cc1c(NC(=O)c2ccc(N3CCOCC3)c([N+](=O)[O-])c2)sc2c1CCCC2	0.8	-1	2	-0.4	-3	3.3%
COc1c(F)c(F)c(C(=O)O)c(Nc2cccc(C)c2)c1F	3.9	6	-7	0.3	8	-1.1%
COC(=O)c1nnn(-c2ccc(F)c(Cl)c2)c1C(=O)OC	4.7	12	0	3.2	-7	-0.3%
COCCNC(=O)c1ccc(-c2nc(CS(=O)(=O)c3ccccc3)c(C)o2)cc1	.	.	.	-0.3	-7	1.9%
CCN(C)c1cc2c(c3c1ccn3C)C1CCC2C1 (centres undefined)	4.0	?	?	2.5	2	16%
CCCNC(=O)c1cn(CC)c2cc(N3CCN(C(=O)c4ccco4)CC3)c(F)cc2c1=O	0.1	.	-9	2.0	32	2.2%
CC1(C)CNC(=S)N1Cc1ccccc1	-4.8	-5	1	-0.2	24	-0.2%
C/C(=N\Nc1nccnc1Cl)c1ccc(F)cc1	1.0	-14	-2	-0.4	-2	3.5%
O=C(NCCc1ccc(Cl)cc1)C(=O)c1c[nH]c2ccccc12	-1.0	-3	6	4.8	16	12%
O=C(Nc1cc(S(=O)(=O)N2CCCCC2)ccc1N1CCOCC1)c1ccc(C(F)(F)F)cc1	-3.3	2	4	0.9	-4	-1.8%
COc1ccccc1C(=O)CSc1nccn1C	-4.3	-9	-15	0.2	3	-0.1%
O=C(Cc1ccc(F)cc1)NCCc1csc(-c2ccc(C(F)(F)F)cc2)n1	.	.	.	1.1	9	0.6%
O=C(Nc1ccc(NS(=O)(=O)c2ccccc2)cc1)c1cccnc1	0.6	-8	-18	1.4	0	0.4%
CNCCc1ccccn1	-6.0	-3	0	-0.6	13	1.2%&-0.9%

Sorted by formula weight (rising): 13 of the compounds above.
SMILES	D2 agonist	CtBP-E1A inh	Six1-Eya2 blk	TRPML1 ag	TRPML1 inh	PINK1 modulator
CNCCc1ccccn1	-6.0	-3	0	-0.6	13	1.2%&-0.9%
CC1(C)CNC(=S)N1Cc1ccccc1	-4.8	-5	1	-0.2	24	-0.2%
CCN(C)c1cc2c(c3c1ccn3C)C1CCC2C1 (centres undefined)	4.0	?	?	2.5	2	16%
COc1ccccc1C(=O)CSc1nccn1C	-4.3	-9	-15	0.2	3	-0.1%
COc1c(F)c(F)c(C(=O)O)c(Nc2cccc(C)c2)c1F	3.9	6	-7	0.3	8	-1.1%
COC(=O)c1nnn(-c2ccc(F)c(Cl)c2)c1C(=O)OC	4.7	12	0	3.2	-7	-0.3%
O=C(NCCc1ccc(Cl)cc1)C(=O)c1c[nH]c2ccccc12	-1.0	-3	6	4.8	16	12%
O=C(Nc1ccc(NS(=O)(=O)c2ccccc2)cc1)c1cccnc1	0.6	-8	-18	1.4	0	0.4%
O=C(NCc1ccc2c(c1)OCO2)c1cc(COc2c(F)cccc2F)on1	-0.1	9	13	1.7	-8	?
N#Cc1c(NC(=O)c2ccc(N3CCOCC3)c([N+](=O)[O-])c2)sc2c1CCCC2	0.8	-1	2	-0.4	-3	3.3%
COCCNC(=O)c1ccc(-c2nc(CS(=O)(=O)c3ccccc3)c(C)o2)cc1	.	.	.	-0.3	-7	1.9%
CCCNC(=O)c1cn(CC)c2cc(N3CCN(C(=O)c4ccco4)CC3)c(F)cc2c1=O	0.1	.	-9	2.0	32	2.2%
CN(C(=O)COc1ccc(S(=O)(=O)N2CCOCC2)cc1[N+](=O)[O-])C1CCS(=O)(=O)C1 (centres undefined)	-1.0	0	-4	0.9	0	2.6%

Compounds were not picked by outcome, and some 1% of all compounds hit somewhere here.
